# T cruzi inh = blocks replication of Trypanosoma cruzi; T. cruzi beta-gal in NIH3T3, luminescence, 90 h; inhibition, % (test concentration not listed); 300,000 tested, 1.4% active; AID 1885;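 active = mean inhibition across valid replicates above about 55%, limit read from the data; inconclusive = mean below that limit but half or more replicates reach it; inactive = mean below it, under half of replicates reach it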;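 also: signal also drops with host cell toxicity which is not excluded here; 0% = plate median of DMSO wells and 100% = zero luminescence signal; higher percent means less beta-gal luminescence so fewer parasites; stock transfer was 50 nL into about 50 µL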
# RanGTP-Imp inh = disruptors of Ran-importin-beta complex formation – biochemical, FRET, CFP-Ran, YFP-importin-beta, homogeneous, primary screen; cell-free CFP-Ran/YFP-importin-beta FRET ratio; inhibition, % (test concentration not listed); 300,000 tested, 1.1% active;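 active = most replicates above 15%; inconclusive = exactly half above 15%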;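 also: 0% = DMSO wells and 100% = Ran loaded with GDP instead of GTP; wells of about 40 µL received 100 nL stock; the first replicate is given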
# Calb FLC = C. albicans growth modulation with fluconazole. C. albicans CaCi-2 (fluconazole-resistant clinical isolate) + fluconazole, Alamar Blue growth, 48 h. 300,000 tested, 0.57% active. growth inhibition, % (concentration not given with the values);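 active = most replicates above 75%; inconclusive = exactly half above 75%; inactive = most below 75%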;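 also: all wells also contain fluconazole at 8 µg/ml as a sub-toxic cotreatment; 0% = median of DMSO wells and 100% = median of geldanamycin control wells; wells of about 8 µL received 7.5 nL stock; the first replicate is given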
# Vif A3G = inhibitors of Vif binding to APOBEC3G peptide, primary screen, biochemical, TR-FRET, GST-Vif 1-94, biotin-A3G peptide, dose response retest (AID 1117319); TR-FRET GST-Vif / biotin-A3G peptide binding; higher % means a stronger effect; test concentration not given here; strong numbers were not always called active; one-dose inhibition, %; IC50 in µM for titrated hits; 260,000 tested, 0.57% active;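 active = above the screen mean plus three standard deviations and confirmed in dose response; inconclusive = results disagree or hit not tested in dose response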;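 also: Vif residues 1-94 fused to GST binding biotinylated APOBEC3G peptide 110-148; 0% = full assay without inhibitor and 100% = GST in place of GST-Vif; retest series ran down from 100 µM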
# Bfl-1 A1 inh = inhibitors of the anti-apoptotic protein A1, read as caspase activation; caspase activation, % (no concentration beside the values); 330,000 tested, 0.066% active; MEF A1-2A-BIM cells, Caspase-Glo 3/7 luminescence, 3 h; percent of clofoctol response, vehicle zero;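 active = over half of replicate activation scores above 10%, or exactly half above 10 with the replicate mean above 10; inconclusive = replicate mean below 10 yet half the replicates above 10; inactive = over half of replicates below 10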;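 also: wells of about 30 µL received 50 nL stock; many hits fall short of the cut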
# AF4-AF9 inh = MLL-AF4/AF9 protein interaction inhibition; P42568; AlphaScreen, biotin-AF4 peptide binding to FLAG-AF9; inhibition, % at 10 µM; 350,000 tested, 0.47% active; AID 651704;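 active = every replicate reaching a set inhibition limit, whatever the replicate mean, cut at about 25% in these data; inconclusive = mean inhibition reaches that limit but some replicates miss it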;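 also: 0% = plate neutral control median and 100% = total signal loss; the record names both 10 and 1 µM as test concentration; the first replicate is given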
# Target sequence (P42568 whole entry, looked up): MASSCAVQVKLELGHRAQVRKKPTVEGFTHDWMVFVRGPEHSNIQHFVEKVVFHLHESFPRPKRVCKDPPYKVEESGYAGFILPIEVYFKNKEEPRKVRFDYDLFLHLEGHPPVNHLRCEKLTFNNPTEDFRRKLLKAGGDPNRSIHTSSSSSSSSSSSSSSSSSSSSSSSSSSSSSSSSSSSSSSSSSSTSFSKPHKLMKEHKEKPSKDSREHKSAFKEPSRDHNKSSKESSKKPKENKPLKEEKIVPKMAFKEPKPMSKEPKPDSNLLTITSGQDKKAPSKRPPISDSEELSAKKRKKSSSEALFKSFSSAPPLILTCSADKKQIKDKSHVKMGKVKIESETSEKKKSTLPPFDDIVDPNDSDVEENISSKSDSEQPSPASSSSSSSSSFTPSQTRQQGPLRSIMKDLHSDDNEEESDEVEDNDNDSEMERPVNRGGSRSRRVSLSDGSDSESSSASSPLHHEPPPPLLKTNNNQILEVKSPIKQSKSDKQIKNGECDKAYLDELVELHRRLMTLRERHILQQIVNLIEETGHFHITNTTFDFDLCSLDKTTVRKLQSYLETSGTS
# Beta apoptosis = blocks beta cell apoptosis. 300,000 tested, 0.8% active. INS-1E cytokine-induced death, ATP luminescence, 48 h; percent of positive-control rescue, neutral wells zero. AID 435005. protection from apoptosis, % (test concentration not listed);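 active = all replicates at 75% or more, or half of them and the mean; inconclusive = half reach 75% but not the mean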;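 also: 0% = cytokine-treated negative control wells and 100% = positive control rescue; higher means more ATP so stronger rescue from cytokine killing; wells of about 40 µL received 100 nL stock; the first replicate is given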
# LANA-H2B inh = blocks KSHV LANA binding to histone H2A/H2B; Q9QR71; cell-free LANA-H2A/H2B peptide, fluorescence polarization; inhibition, % (no concentration beside the values); 320,000 tested, 0.6% active; AID 2629; in the data active = inhibition mostly above about 10%, no sharp cut-off; inactive = mostly below about 6.7%;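 also: stock transfer was 7.5 nL into about 10 µL; 0% = median of vehicle wells and 100% = median of positive control wells; one replicate is shown; the record names a cut of 25% in any replicate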
# Starred values were filed as active, the others as inactive; ? = inconclusive; . = not tested or not shown; & = joins results of further samples. The order is random; about 4.3% have a hit in one of these screens.
canonical_smiles,T cruzi inh,RanGTP-Imp inh,Calb FLC,Vif A3G,Bfl-1 A1 inh,AF4-AF9 inh,Beta apoptosis,LANA-H2B inh
O=C(CCc1nnc(-c2ccccc2)o1)NC1CCCCC1,-1,3.0,6,6%,0.0,?,-3,-0.1
CC(=O)N1CCC2(CC1)C/C(=N\NC(=S)Nc1ccccc1F)c1cc(O)ccc1O2,11,8.1,?,?,0.2,7.3,1,-7.9
Nc1cc(=O)[nH]c(SCC(=O)Nc2ccc(S(=O)(=O)N3CCCC3)cc2)n1,.,.,.,0%,1.4,-2.7,-3,3.0
COc1ccc2ccccc2c1/C=N/NC(=O)c1ccccc1F,1,2.9,-4,.,1.8,1.5,-4,-4.1
Nc1ccccc1C(=O)NC1CCCCNC1=O (stereo not given),.,-0.7,23,21%,2.3,-2.4,.,-7.2
Cc1ccc(CCNC(=O)CC(C)CC2=NS(=O)(=O)c3ccccc3N2)cc1 (stereo not given),-6,-1.2,-13,.,-0.2,-1.9,-3,3.8
CC(NC(=O)CN(C)S(=O)(=O)c1cnc[nH]1)c1ccccc1 (stereo not given),-5,1.5,-6,-7%,1.1,-7.0,3,-1.3
CCN(C(=O)COC(=O)c1ccc([N+](=O)[O-])o1)C1CCCCC1,.,.,.,.,-0.4,3.0,-3,-5.4
CN(C)CCCN(C(=O)/C=C/c1cccs1)c1nc2c(F)cccc2s1,56*,1.7,?,-7%,.,17,.,.
COc1ccc(CC(=O)NCc2cccs2)cc1OC,-5,2.0,-4,2%,-1.5,.,.,0.4
Cn1c(C(=O)NCCc2c[nH]c3ccccc23)cc2sccc21,4,-2.2,-12,?,-0.1,10,-1,-2.1
CCNC(=O)c1oc2c(c1C)C(=O)CC(C)(C)C2,3,8.0,13,-6%,0.6,.,-4,4.5
O=C(NCC(=O)N(c1cccc(F)c1)C(C(=O)NCC1CCCO1)c1ccccc1)c1ccco1 (stereo not given),-10,0.1,-7,5%,0.2,.,-3,-1.2
COc1ccc(OC)c(S(=O)(=O)ON2C(=O)c3ccccc3C2=O)c1,-6,-1.9,-2,.,2.6,-10,22,6.1
O=C(CSCc1ccc([N+](=O)[O-])cc1)N/N=C/c1ccncc1,8,0.0,6,26%,0.1,-2.8,-1,6.2
CC(=O)N(C)c1ccc(N=Cc2cc3c(cc2[N+](=O)[O-])OCO3)cc1,-2,?,1,.,-0.1,5.3,2,7.7
C/C(=N\NC(=O)c1c([N+](=O)[O-])c(C)nn1C)c1ccc(NC(=O)C2CCCC2)cc1,0,-1.8,-3,.,0.1,1.4,7,-5.4
CC[N+](CC)(CC#Cc1ccccc1)CC#Cc1ccccc1,48,3.5,-4,-8%,-0.5,1.5,19,-3.7
COc1ccccc1NC(=O)C(C)NC(c1ccccc1)c1ccccc1 (stereo not given),15,1.0,11,.,-0.3,-1.7,-5,2.1
CN(Cc1ccccc1)C(=O)CSc1nc2c(c(C(F)(F)F)n1)CCc1ccccc1-2,36,-1.5,-4,.,0.2,.,9,4.6
COc1ccc(NC(=O)CN(C)C(=O)c2ccccc2OCC(=O)Nc2cccc(C(F)(F)F)c2)cc1,10,2.0,10,-3%,0.3,-0.5,8,1.1
CCOc1cc(CNC)ccc1OCC(=O)NC(C)(C)C,11,-2.3,-6,.,0.3,-0.1,1,1.2
Cc1csc(SCc2ccccc2C(=O)O)n1,-3,-3.6,-5,-2%,0.2,.,0,-2.8
Clc1ccc(CSc2nnc(-c3cccnc3)n2Cc2ccco2)c(Cl)c1,4,-1.4,24,5%,0.1,.,-12,-0.6
C=CCNC(=S)Nc1ccc(Cl)c(S(=O)(=O)N2CCOCC2)c1,-6,-2.0,9,20%,0.7,-0.2,-5,2.3
O=C1c2ccccc2C(=O)c2c1oc(C(F)(F)F)c2C(=O)c1ccccc1,59*,4.6,-22,-6%,-0.5,.,123*,-6.9
O=C(CSc1nnc(NC(=O)C2CCC2)s1)Nc1ccccc1,-8,7.2,9,-5%,-0.2,-8.6,0,4.4
O=S1(=O)N(Cc2ccccc2F)CCCN1Cc1c(F)cccc1Cl,34,-1.7,-2,3%,1.0,2.3,-6,0.9
CC(C)NS(=O)(=O)c1ccc(OCC(=O)N(C)Cc2ccccc2)cc1,-11,2.8,5,1%,-0.2,.,-2,-12
C=C(CC1([C@@H](NP(=O)(c2ccccc2)c2ccccc2)[C@H]2C[C@@H]2CCCC)CC1)c1ccccc1,-12,7.1,-14,.,1.1,2.4,38,1.7
O=C(NC(=S)Nc1ccc(Cl)cn1)c1cccs1,-18,2.8,10,0%,0.2,.,-5,-8.1
Cc1onc(-c2ccccc2Cl)c1C(=O)c1ccccc1,17,-2.8,12,-2%,-0.8,-0.2,-1,-3.4
O=C1c2ccccc2NC(c2ccc(O)cc2)N1c1ccccc1 (stereo not given),1,6.2,-4,-25%,-1.0,-2.2,1,-1.7
Cc1cc(C)nc(Sc2ccc(C=O)cc2[N+](=O)[O-])n1,-3,5.9,26,10%,1.5,-0.1,-11,5.2
Cc1ccc([N+](=O)[O-])c(OCCCN2C(=O)NC(C)(C)C2=O)c1,-11,3.8,46,6%,0.6,-0.7,1,2.9
CC(Oc1ccc2ccc(=O)oc2c1)C(=O)c1ccccc1 (stereo not given),-2,1.5,2,5%,0.3,-9.7,1,-1.0
O=C(c1cccc(Cl)c1)N1CCN(c2ncnc3c2cnn3-c2ccccc2)CC1,-2,-3.9,13,.,-0.7,-1.9,.,-3.9
CCOC(=O)C1(Cc2cccc(OC)c2)CCCN(C(=O)CNC(C)=O)C1 (stereo not given),-15,0.8,-5,.,-0.1,-1.5,-7,3.9
C/C(N)=C(/C#N)C(=O)COC(=O)C1CCN(S(=O)(=O)c2cccs2)CC1,.,.,.,-2%,0.4,-0.4,-6,-2.6
Cc1ccc(C(=O)O/N=C/c2c(N3CCOCC3)n(C)c3ccccc23)cc1,56*,1.3,110*,30%,-1.2,.,99*,4.3
CC(C)c1cc(=O)[nH]c(N2CCN(Cc3ccc4c(c3)OCO4)CC2)n1,2,0.0,-10,-6%,1.2,-5.2,-3,5.4
Cn1c(Cn2c(=O)sc3ccccc32)nnc1SCC(=O)N1CCCCCC1,-3,-0.7,-2,20%,0.4,-5.1,-1,-1.3
COC(=O)c1cc(NC(=O)c2cccc(Cl)c2)c(=O)oc1/C=C/Nc1cc(C)cc(C)c1,3,2.2,-4,-1%,0.1,.,-12,-2.0
O=C(CCNS(=O)(=O)c1ccc(Br)cc1)NCc1ccc(Cl)cc1,-10,5.6,0,.,-0.8,-3.7,-8,1.9
Cc1csc(NC(=O)c2ccc(OCC3CCCO3)cc2)n1 (stereo not given),3,-3.7,-24,-1%,-5.7,-1.6,-3,3.2
COc1ccc(C2=CC(=O)CC(c3ccccc3)C2)cc1 (stereo not given),8,2.9,7,.,-0.2,1.0,-3,0.9
Cc1ccc(-c2nnn(CC(=O)N(Cc3ccccc3)C(C(=O)NC(C)(C)C)c3ccncc3)n2)o1 (stereo not given),2,2.4,-3,1%&-3%,0.5,9.1,2,1.6
Cc1ccc2c(c1)NC(=O)c1cccnc1N2,11,1.4,2,8%,1.3,.,3,-1.2
O=C(N/N=C/c1ccc(Br)s1)c1ccncc1,-1,-0.1,27,32%,-0.9,-1.4,-2,-1.9
COCCN(CC(=O)Nc1cccc(C)c1)S(=O)(=O)c1ccc(S(=O)(=O)N2CCCC2)cc1,9,1.0,-11,-2%,0.8,.,3,3.7
O=C(CSc1nnc(NC(=O)C2CC2)s1)NCc1ccco1,0,-3.9,-1,.,0.5,2.5,-5,-4.3
Cc1ccc2c(c1)C(=O)C(=O)N2CC(=O)Nc1ccccc1NC(=O)c1ccccn1,24,5.3,-42,7%,0.2,0.2,-10,-7.1
COC(=O)CSC(C(=O)Nc1ccc(C)c(C)c1)c1ccccc1 (stereo not given),0,1.8,46,-2%,-0.9,.,2,1.3
COc1ccc(C(=O)COC(=O)c2cc([N+](=O)[O-])ccc2N2CCOCC2)c(OC)c1,7,2.3,-2,.,-0.2,7.7,15,-0.1
CCOC(=O)C1=C(C)N(CCC(=O)O)C(=O)NC1c1ccccc1Cl (stereo not given),-1,?,-7,.,0.6,-1.3,1,-1.8
O=C(NC(C(=O)N/N=C/c1cc([N+](=O)[O-])ccc1O)c1n[nH]c(=O)c2ccccc12)c1ccccc1 (stereo not given),-13,8.5,16,.,-0.1,17,0,2.9
N#Cc1c(NC(=O)c2ccc(Cn3cc(Br)cn3)o2)sc2c1CCCCCC2,33,1.5,0,0%,0.3,.,-3,-0.7
COc1ccc(-c2cc(C(=O)Nc3c(C)n(C)n(-c4ccccc4)c3=O)no2)cc1,2,-0.6,-1,-4%,0.0,-0.9,-9,3.7
CC(=O)Nc1nc(SCc2cccc3ccccc23)n[nH]1,-10,-0.7,-6,?,1.2,.,-7,-2.9
Nc1nnc(CCOc2ccc(Cl)cc2)s1,-9,-1.7,55,5%,-0.1,-1.5,.,-1.0

# The list goes on.
canonical_smiles,T cruzi inh,RanGTP-Imp inh,Calb FLC,Vif A3G,Bfl-1 A1 inh,AF4-AF9 inh,Beta apoptosis,LANA-H2B inh
NC(=O)c1ccc(NC(=O)CN2CCN(S(=O)(=O)c3ccc4ccccc4c3)CC2)cc1,.,.,.,-4%,0.1,0.4,-2,9.2
N/C(=N\NC(=O)c1cccs1)c1cc2cc(Cl)ccc2oc1=O,-1,-2.2,1,18%,-0.1,-8.2,0,-5.6
CCOc1cc(/C=C2\C(=O)N(c3cccc(C(=O)O)c3)N=C2C(F)(F)F)ccc1OCC(=O)Nc1ccccc1OC,3,-1.6,-2,.,0.3,.,-2,3.0
CC(C)CNc1nc(Oc2ccc(=O)[nH]n2)nc(N2CCOCC2)n1,-1,7.6,-2,-5%,0.5,0.6,10,4.1
O=C(NCCCN1CCCC1=O)c1ccc(NS(=O)(=O)c2ccc(F)cc2)cc1,.,.,.,9%,0.9,0.8,0,-8.6
CCn1c(=S)[nH]c2cc(C(=O)O)ccc21,-13,8.9,9,-1%,-0.4,.,-2,1.1
COC(=O)Cn1cc([N+](=O)[O-])nc1C,-19,-1.0,-2,1%,0.2,-0.5,-3,-1.0
Cc1cc(NC(=O)CSc2nc(C3CC3)nc3sc(C)c(C)c23)no1,-25,-2.1,0,-16%,1.0,.,.,-0.6
CC(C)CC(NC(=O)C1CCCCC1)C(=O)N1CCN(c2ccccn2)CC1 (stereo not given),-7,-1.3,39,-1%,0.0,.,-1,4.4
COc1cc(O)c(C(CCN2CCCC(C)C2)c2ccc3c(c2)OCO3)c(OC)c1 (stereo not given),13,0.7,-12,-3%,-1.9,13,-9,-3.1
Cc1cc(C)c2c(c1)C(=O)/C(=C/c1ccc(C(=O)O)cc1)CC2,2,1.3,-5,.,-4.1,0.6,-3,6.1
CCOc1ccc(OCCN2CCCCC2)cc1,19,0.1,7,-1%,-1.4,.,-5,.
CCOC(=O)[C@@H]1[C@H]2COc3cc(OC)ccc3[C@@H]2N2C(=O)N(c3cccc(Cl)c3)C(=O)[C@]12C,-17,-5.8,48,.,0.7,.,-2,3.8

# Screens as filed in PubChem BioAssay.
